Assay outcomes: PubChem BioAssay, Vanderbilt University
GIRK2 activ – activators of human GIRK2 potassium channels; G protein-activated inward rectifier potassium channel 2 (Homo sapiens), P48051; HEK293-GIRK2 thallium flux, Thallos fluorescence; calls only for hits at 25 µM; 0.05% of 63,000 active;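 active = among the strongest 0.2% of first-round signals and kept after retests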;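 also: first round at about 10 µM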
Target sequence (P48051 whole entry, looked up): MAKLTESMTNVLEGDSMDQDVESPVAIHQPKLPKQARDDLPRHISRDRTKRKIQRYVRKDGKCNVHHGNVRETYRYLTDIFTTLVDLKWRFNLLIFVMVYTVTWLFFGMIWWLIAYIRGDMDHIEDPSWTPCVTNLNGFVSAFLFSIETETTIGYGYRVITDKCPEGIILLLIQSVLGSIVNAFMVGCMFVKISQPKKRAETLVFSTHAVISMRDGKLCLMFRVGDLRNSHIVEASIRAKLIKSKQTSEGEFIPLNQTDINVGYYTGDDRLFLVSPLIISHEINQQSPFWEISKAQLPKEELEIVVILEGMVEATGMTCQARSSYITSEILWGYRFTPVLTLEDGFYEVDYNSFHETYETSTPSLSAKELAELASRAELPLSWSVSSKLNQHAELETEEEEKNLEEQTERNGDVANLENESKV
Calls only; i = inactive.

GIRK2 activ	SMILES
i	CCn1c(SCC(=O)Nc2ccc3c(c2)OCO3)nc2nc(N3CCC(C)CC3)sc2c1=O
i	COc1ccc(N2CCn3c2nc2c3c(=O)n(C/C=C(/C)Cl)c(=O)n2C)cc1
i	COc1ccc(CNC(=O)CCn2cnc3c([nH]c4ccccc43)c2=O)cc1OC
i	Cc1ccc(-n2nnc3c(N4CCN(C(=O)c5ccc(Br)o5)CC4)ncnc32)cc1
i	COc1ccc(S(=O)(=O)N2CCOC2CNC(=O)C(=O)NCCCN2CCOCC2)cc1OC (stereo not given)
i	Cc1ccc(NC(=O)CSc2ncc(S(=O)(=O)c3ccc(N4CCCC4)cc3)c(=O)[nH]2)cc1C
i	CCCn1c(=O)c2c(nc3n2CC(C)=NN3CC(=O)C(C)(C)C)n(C)c1=O
i	COc1cccc(C2=C(c3c(C)n(C)c4ccccc34)C(=O)NC2=O)c1
i	O=C(NCCc1cccs1)C1CCCN(c2nc3c(-c4ccccc4)csc3c(=O)[nH]2)C1 (stereo not given)
i	Cc1nnc(NC(=O)CN2CC(c3nc(Cc4ccccc4)no3)C2)s1
i	Cc1ccc(Cl)cc1NC(=O)Cn1nc2c(SC3CCCCC3)nccn2c1=O
i	Cc1ccc(NC(=O)c2ccc(Cl)s2)cc1N1CCCC1=O
i	O=C(NCc1ccccc1Cl)c1c2c(nn1C1CCS(=O)(=O)C1)CCC2 (stereo not given)
i	CN(CC(=O)Nc1ccc2cn[nH]c2c1)c1nc2ccccc2s1
i	NC(=O)CSc1nnc(N2CCN(c3ccc(F)cc3)CC2)s1
i	Cn1c(=O)[nH]c(=O)c2c1nc(N1CCCCCC1)n2CCCOc1ccccc1
i	Cc1cc(N2CCN(C(=O)Cc3cccc4ccccc34)CC2)ncn1
i	Cc1cc(=O)c2ccc(C(F)(F)F)cc2[nH]1
i	COc1ccc(F)cc1S(=O)(=O)N1CCC(C(=O)Nc2cc(C)on2)CC1
i	NC(=O)CSc1ncc(-c2ccc(Cl)c(Cl)c2)n1-c1ccccc1
i	COc1ccc(Cl)cc1C(=O)CN1C(=O)COc2ccccc2C1=O
i	COc1cccc(CC(=O)NC2CCN(C(=O)c3cn(-c4ccccc4C)nn3)CC2)c1
i	COc1ccc(SCCCC(=O)Nc2nc3c(s2)CCCC3)cc1
i	Cc1ccc(NCCNC(=O)Nc2cccc(F)c2)nn1
i	CC(C)n1c(=O)c2ccc(C(=O)NC3CCCC3)cc2n2c(=O)n(Cc3cccc(F)c3)nc12
i	CCCS(=O)(=O)NCC1(c2ccccc2)CCOCC1
i	Cc1ccn(-c2ccc(C(=O)NCCc3ccc(Cl)cc3)cn2)n1
i	O=C(CCSc1ccccc1)NCc1ccc(C(=O)c2cccs2)s1
i	Cc1ccc2c(c1)c1c(n2CC(O)Cn2ccnc2C)C(=O)CCC1 (stereo not given)
i	Cn1cnc(S(=O)(=O)NCC2CCN(C(=O)Oc3ccccc3)CC2)c1
i	COc1ccc(N2CCN(C(=O)CCCCn3c(=O)[nH]c4cc(OC)c(OC)cc4c3=O)CC2)cc1
i	CCC(Sc1nc2ncccc2c(=O)n1Cc1ccc(F)cc1)C(=O)Nc1ccc(F)cc1 (stereo not given)
i	O=C(CC1CSc2nc3c(c(=O)n21)CCC3)N1CCC(Oc2ncccc2Cl)CC1 (stereo not given)
i	COCCOC(=O)C1=C(C)NC(=O)NC1c1ccc(OC(F)F)c(OC)c1 (stereo not given)
i	CCSc1ccccc1C(=O)NC1CNC(=O)C1 (stereo not given)
i	O=C(CCCS(=O)(=O)Cc1ccccc1)Nc1nc(-c2cc3ccccc3o2)cs1
i	O=C1CCSCC(C(=O)N2CCN(c3cccc(C(F)(F)F)c3)CC2)N1 (stereo not given)
i	CN(CC#CCNC(=O)c1ccc[nH]c1=O)Cc1ccccc1
i	COc1ccc(NC(=O)CN2C(=O)NC(c3ccc(C)cc3)C3=C2COC3=O)cc1 (stereo not given)
i	COc1ccc(S(=O)(=O)N2CCN(c3cnccn3)CC2)cc1
i	COc1ccccc1N1CCN(c2ccnc(SCC(=O)Nc3ccc4c(c3)OCO4)n2)CC1
i	O=C(Oc1ccc(/C=C/c2ccncc2)cc1)c1ccncc1
i	CCOc1ccc(C(=O)Nc2ccc3c(c2)CCC(=O)N3C)cc1
i	O=C(Nc1ccc2c(c1)Cc1ccccc1-2)c1csc(Nc2ncccn2)n1
i	O=C(Cn1cc(S(=O)(=O)c2ccccc2)c(=O)c2cc3c(cc21)OCO3)Nc1ccc(Cl)cc1
i	CC(=O)Nc1ccc(C(=O)NCCNS(=O)(=O)CCc2ccccc2)cc1
i	CC[C@H]1C[C@]23OC(=O)C(=C(O)[C@@]4(CC)[C@@H]5CC[C@H](C)[C@H](O[C@H]6CC(O)[C@@H](NC(=O)c7[nH]c(Cl)cc7Cl)C(C)O6)[C@H]5C=C[C@H]4C/C=C/C/C(C)=C/[C@@]2(C)C=C1C(=O)O)C3=O (stereo not given in full)
i	CCOCCn1c(=O)c2c(nc3n2CC(C)CN3c2ccc(OC)c(Cl)c2)n(C)c1=O (stereo not given)
i	Cc1cc(C(F)(F)F)nc(CCNC(=O)C2CCC2)n1
i	CN(C)C(=O)c1ccc(NC(=O)COc2ccc3ccccc3c2)cc1

A section of the results above, as a working copy:
GIRK2 activ	SMILES
i	CCCS(=O)(=O)NCC1(c2ccccc2)CCOCC1
i	Cc1ccn(-c2ccc(C(=O)NCCc3ccc(Cl)cc3)cn2)n1
i	O=C(CCSc1ccccc1)NCc1ccc(C(=O)c2cccs2)s1
i	Cc1ccc2c(c1)c1c(n2CC(O)Cn2ccnc2C)C(=O)CCC1 (stereo not given)
i	Cn1cnc(S(=O)(=O)NCC2CCN(C(=O)Oc3ccccc3)CC2)c1
i	COc1ccc(N2CCN(C(=O)CCCCn3c(=O)[nH]c4cc(OC)c(OC)cc4c3=O)CC2)cc1
i	CCC(Sc1nc2ncccc2c(=O)n1Cc1ccc(F)cc1)C(=O)Nc1ccc(F)cc1 (stereo not given)
i	O=C(CC1CSc2nc3c(c(=O)n21)CCC3)N1CCC(Oc2ncccc2Cl)CC1 (stereo not given)
i	COCCOC(=O)C1=C(C)NC(=O)NC1c1ccc(OC(F)F)c(OC)c1 (stereo not given)
i	CCSc1ccccc1C(=O)NC1CNC(=O)C1 (stereo not given)
i	O=C(CCCS(=O)(=O)Cc1ccccc1)Nc1nc(-c2cc3ccccc3o2)cs1
i	O=C1CCSCC(C(=O)N2CCN(c3cccc(C(F)(F)F)c3)CC2)N1 (stereo not given)
i	CN(CC#CCNC(=O)c1ccc[nH]c1=O)Cc1ccccc1
i	COc1ccc(NC(=O)CN2C(=O)NC(c3ccc(C)cc3)C3=C2COC3=O)cc1 (stereo not given)
i	COc1ccc(S(=O)(=O)N2CCN(c3cnccn3)CC2)cc1

Next part
GIRK2 activ	SMILES
i	COC(=O)C1=C(C)NC(=O)NC1c1ccc(Cl)cc1 (stereo not given)
i	CC(C)(C)C(=O)N1CCN(c2ccc(-c3noc(C(F)(F)F)n3)cn2)CC1
i	CCOC(=O)N1CCN(C(=O)CCc2nc3sc4c(c3c(=O)[nH]2)CCCCC4)CC1
i	COc1cccc(S(=O)(=O)N2CCCC2)c1
i	O=C(CCC1CCCCC1)NCCn1ncc2c(N3CCN(Cc4ccccc4)CC3)ncnc21
i	Cc1oc(-c2ccccc2)nc1Cn1c(=O)n(CCc2cccs2)c(=O)c2sccc21
i	O=C(COc1ccccc1)NCC1CCN(C(=O)c2ccoc2)CC1
i	Nc1nc(-c2ccc(Cl)cc2)ns1
i	COc1cc(F)c(F)cc1C(=O)c1cnc(NC2CCN(S(C)(=O)=O)CC2)nc1N
i	O=C(CCCS(=O)(=O)Cc1ccccc1)Nc1nc2c(s1)CCc1ccccc1-2
i	COc1ccccc1NC(=O)CSc1nnc(Cn2ccc(=O)[nH]c2=O)o1
i	O=C(Nc1nc2c(s1)CN(S(=O)(=O)c1cccc(Cl)c1)CC2)NC1CCCC1
i	COc1ccc(OC)c(-c2cc(C(=O)NCC#CCN3CCOCC3)[nH]n2)c1
i	COc1cc(NC(=O)Cn2nc3c4cccc(C)c4ncn3c2=O)cc(OC)c1OC
i	CC1CCCCN1C(=O)c1cc2c(=O)n3ccccc3nc2n1Cc1ccccc1 (stereo not given)
i	CC(C)(C)NC(=O)NCc1ccsc1
i	COc1cc(OC)c(NC(=O)CN2N=NC3C(=O)N(c4ccc(F)c(F)c4)C(=O)C32)cc1Cl (stereo not given)
i	CCC1=C[C@H]2CN(C1)Cc1c([nH]c3ccccc13)[C@@](C(=O)OC)(c1cc3c(cc1OC)N(C)[C@H]1[C@@](O)(C(=O)OC)[C@H](OC(C)=O)[C@]4(CC)C=CCN5CC[C@]31[C@@H]54)C2
i	COc1ccc(C2CC3C4NN=C(SCC(=O)Nc5cccc(Cl)c5C)N4C=CN3N2)cc1 (stereo not given)
i	Cc1ccccc1NC(=O)CNC(=O)C1CCCCC1
i	CCC[C@@H]1C[C@@H](C(=O)N[C@@H]([C@H]2O[C@H](SC)[C@H](O)[C@@H](O)[C@@H]2O)[C@@H](C)O)N(C)C1
i	COc1ccc(C(=O)Nc2cccc(-n3c(C)nc4ccccc4c3=O)c2)c(OC)c1
i	O=C(CSc1nc(N2CCCCC2)nc2ccccc12)Nc1ccc2c(c1)OCCO2
i	COc1cc(-c2nnc(NC(=O)Cc3cccc4ccccc34)o2)cc(OC)c1OC
i	CS(=O)(=O)NCC1CCC(C(=O)NCC2CCS(=O)(=O)C2)CC1 (stereo not given)
i	COc1cccc2sc(OC3CN(S(=O)(=O)c4cccs4)C3)nc12
i	CC(C)N1CCC(CNC(=O)c2ccc(Cl)c(Cl)c2)CC1
i	O=C(Cn1ccn2nc(-c3ccccc3)cc2c1=O)Nc1ccc(Br)cc1
i	COC(=O)Cn1c(=O)c2c(nc3n(C4CCCCC4)c(C)cn23)n(C)c1=O
i	O=C(NCCOc1ccc(F)cc1)c1nnn(-c2ccc(Cl)cc2)n1
i	CCCn1c(=O)c2c(nc(-n3nc(C)cc3C)n2Cc2ccc(OC)cc2)n(C)c1=O
i	COC(=O)N1CCC(CNC(=O)c2cccc(C(F)(F)F)c2)CC1
i	O=S(=O)(NCCNc1ccc(Nc2cccnc2)nn1)c1cccc(C(F)(F)F)c1
i	O=C(CCc1csc(NC(=O)NC2CCCCC2)n1)Nc1nccs1
i	O=C(Nc1ccc(F)cc1)c1cn(-c2ccc(S(=O)(=O)N3CCCC3)cn2)cn1
i	O=C(Nc1nc(CN2CCc3ccccc3C2)cs1)c1ccc(F)cc1F
i	CC(=O)c1ccc(N2CCN(C(=O)c3coc(NC(=O)C4CCC4)n3)CC2)cc1
i	CCCCC(CC)CNC(=O)CCCCCn1c(=S)[nH]c2cc3c(cc2c1=O)OCO3 (stereo not given)
i	Cc1ccc(C)c(NC(=O)Cn2cnc3c(-c4ccncc4)nsc3c2=O)c1
i	O=C(c1cn(-c2cccc(Cl)c2)nn1)N1CCN(c2ccccc2)CC1
i	CS(=O)(=O)Nc1cccc(NC(=O)C2(c3cc(-c4ccccc4)on3)CC2)c1
i	O=C(/C=C/c1ccsc1)N1CCC2(CC1)OCCS2
i	COc1ccc(-c2cc3c(SCC(=O)N4CCN(c5ccccc5OC)CC4)nccn3n2)cc1
i	CCCCn1cc(S(=O)(=O)c2cc(C)ccc2C)c(=O)c2cc(F)c(N3CCCCC3)cc21
i	COc1ccc(S(=O)(=O)CCC(=O)N(CCN(C)C)c2nc3c(C)c(Cl)ccc3s2)cc1
i	COc1ccc(-c2csc(CN3CCN(C(=O)c4ccc(C)c(C)c4)CC3)n2)cc1
i	O=C(Cc1csc(Nc2ncccn2)n1)NCCOc1ccc(F)cc1
i	O=C(NCCCS(=O)(=O)N1CCN(c2ccccc2)CC1)c1c(F)cccc1Cl
i	CCOc1cc(NC(=O)C(C)(C)C)c(OCC)cc1NC(=O)c1ccccc1
i	O=c1c2cc(-c3cccs3)nn2cnn1Cc1nc(-c2ccc(OCc3ccccc3)cc2)no1

2 records picked at random from the list so far:
GIRK2 activ	SMILES
i	O=C(CCc1csc(NC(=O)NC2CCCCC2)n1)Nc1nccs1
i	Cc1ccc(C)c(NC(=O)Cn2cnc3c(-c4ccncc4)nsc3c2=O)c1

(more compounds)
GIRK2 activ	SMILES
i	Cc1noc(C)c1C(=O)N1CCC(Oc2ncccc2Cl)CC1
i	CSc1ccc(-c2noc(-c3ccc(CS(=O)(=O)c4ccc(C)cc4)o3)n2)cc1
i	Cc1ccc(Nc2nc(C)cc(Nc3ccc(NC(=O)C4CCC(=O)N4)cc3)n2)cc1 (stereo not given)
i	CCOc1ccccc1-n1c(C)cn2c3c(=O)n(CC(C)C)c(=O)n(C)c3nc12
i	CCN1C(SCC(=O)Nc2cc(Cl)c(OC)cc2OC)=NS(=O)(=O)c2ccccc21
i	O=C(CSc1nccn1-c1ccc(C(=O)NCc2cccs2)cc1)NCCc1ccccc1
i	Cc1ccc(C)c(Cn2c(=O)c3c(nc4n(-c5ccccc5O)c(C)cn34)n(C)c2=O)c1
i	C=CCn1c(=O)c2ccccc2n(Cc2nc(-c3ccc(OCC)c(OC)c3)no2)c1=O
i	O=C(Nc1ccc2c(c1)OCO2)N1CC(c2nc(-c3ncccn3)no2)C1
i	O=C(NC1CCN(C(=O)c2cn(-c3ccccc3)nn2)CC1)c1ccc(Cl)cc1
i	COc1cc(C(=O)Nc2sc3c(c2-c2nc4ccccc4s2)CCN(C)C3)cc(OC)c1OC
i	COc1ccccc1CNC(=O)C(=O)NCC1(CO)CC1
i	CCOC(=O)N1CCC(NC(=O)c2sc(-c3nnn(-c4ccc(C)c(C)c4)c3C)nc2C)CC1
i	Cc1noc(CNC(=O)c2ccc3nsnc3c2)n1
i	CSc1ccc(NC(=O)c2ccc(S(=O)(=O)N3CCc4ccccc4C3)cc2)cc1
i	Cc1cc(C(O)CCNS(=O)(=O)c2ccc(C)c(C)c2)c(C)o1 (stereo not given)
i	CS(=O)(=O)C1CCN(C(=O)c2cnccn2)C1 (stereo not given)
i	COc1ccc(-c2noc(C3CC(=O)N(c4ccc(OC)c(OC)c4)C3)n2)c(OC)c1 (stereo not given)
i	Cc1cc(C)cc(Nc2nc(C)cc3nn(CC(=O)Nc4ccccc4)c(=O)n23)c1
i	CCc1nc2oc3cc(OC)ccc3c(=O)c2c(=O)n1Cc1ccccc1
i	CCCNC(=O)c1[nH]c2ccccc2c1NC(=O)c1ccc(Cl)cc1
i	O=C(O)CCC/C=C\C[C@@H]1[C@@H](/C=C/[C@@H](O)Cc2ccccc2)[C@H](O)C[C@@H]1O
i	CCOCC(=O)NCC(C)(O)CSC (stereo not given)

This is a subset, so the mix of outcomes need not match the whole.
